High-throughput results from PubChem BioAssay.
Rce1 inh: yeast Ras-converting enzyme inhibition; Q03530; yeast membranes, quenched prenylated peptide cleavage fluorescence; calls only; actives 0.27% (n = 290,000);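 active = fall in fluorescence gain of 50% or more versus controls, with final raw signal at or below 3038400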;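 also: plate controls were neutral control wells for no effect and wells lacking membranes for full effect; tested at 10 µM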
CSC inhib: blocks cancer stem cells. cancer stem cell-like cells viability, luminescence. inhibition, % at 7.5 µM. actives 1.1% (n = 300,000);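 active = mean at 75% or more and at least half the replicates too; tested in HMLE shEcad cells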;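 also: 0% = median of negative and 100% = median of positive control wells; the first replicate is given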
Yeast UUG start: yeast start codon fidelity modulation; S. cerevisiae UUG-firefly luciferase reporter, luminescence/redox ratio; activity score, % at 18.7 µM; actives 0.13% (n = 350,000);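 active = replicate mean at a twofold rise or more, about +100% in these data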;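 also: firefly luciferase made from a UUG start codon reports start codon fidelity; reporter light over untreated wells divided by growth signal over untreated wells; some hits fall short of that in this replicate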
MT1-MMP act inh: blocks activation of human MT1-MMP; actives 0.061% (n = 360,000); HT1080 RFP-PRO-GFP cells, GFP/RFP ratio fluorescence, overnight; percent of plate control window, DMSO zero; P50281; GFP/RFP ratio change, % at 20 µM;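 active = GFP/RFP ratio change of at least 30% with cell ATP level not reduced by more than half and red fluorescence within 50% of control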; also: strong numbers were not always called active
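Compound: 20 µM single dose, 1% DMSO / System: HT1080 RFP-PRO-GFP cells / Controls: DMSO and RFP-L50D-GFP cell wells / Read-out basis: GFP/RFP fluorescence ratio / Schedule: overnight compound exposure at 37 °C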
PABP FP inh: blocks human PABP binding to poly(A) RNA. P11940. fluorescence polarization. inhibition, % at 35 µM. actives 1% (n = 290,000). AID 2014;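 active = 50% or more with normal probe brightness, or confirmed in later tests; about a fifth of its hits are not listed in these tables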;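 also: calls also rest on retests at 20 µM and on dose response follow-up; controls were probe without protein and protein plus probe with vehicle; some compounds called inactive have numbers as strong as hits; many hits fall short of the cut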
Target sequence (P11940 whole entry, looked up): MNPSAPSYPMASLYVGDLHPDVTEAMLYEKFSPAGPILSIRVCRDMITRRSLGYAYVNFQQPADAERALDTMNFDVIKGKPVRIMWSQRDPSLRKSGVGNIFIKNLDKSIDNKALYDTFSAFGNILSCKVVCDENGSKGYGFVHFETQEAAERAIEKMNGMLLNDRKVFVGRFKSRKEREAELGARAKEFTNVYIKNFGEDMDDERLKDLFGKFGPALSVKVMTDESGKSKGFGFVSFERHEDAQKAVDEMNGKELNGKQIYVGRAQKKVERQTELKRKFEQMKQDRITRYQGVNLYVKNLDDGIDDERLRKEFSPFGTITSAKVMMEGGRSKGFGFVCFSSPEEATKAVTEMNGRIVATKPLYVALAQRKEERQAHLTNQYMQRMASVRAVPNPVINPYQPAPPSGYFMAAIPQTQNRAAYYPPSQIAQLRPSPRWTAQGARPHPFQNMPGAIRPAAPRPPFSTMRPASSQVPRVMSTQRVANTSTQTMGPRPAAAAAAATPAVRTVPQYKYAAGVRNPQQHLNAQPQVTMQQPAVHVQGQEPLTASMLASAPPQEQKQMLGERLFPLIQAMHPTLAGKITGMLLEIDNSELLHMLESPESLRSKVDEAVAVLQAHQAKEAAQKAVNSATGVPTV
eIF4H inh: inhibitors of RNA binding by human eIF4H | actives 0.94% (n = 290,000) | inhibition, % at 35 µM | eIF4H fluorescence polarization binding assay | AID 2012 | Q15056;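 active = 50% or more with normal probe brightness, or confirmed in later tests; about a fifth of its hits are not listed in these tables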;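 also: calls also rest on retests at 20 µM and on dose response follow-up; 0% = protein and probe with vehicle and 100% = probe without protein; strong numbers were not always called active; many hits fall short of the cut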
HIV Env fusion: blocks HIV Env-driven cell-cell fusion. inhibition, % at 12.3 µM. actives 1.1% (n = 360,000). HeLa-JRFL Env/CEM21 cell fusion, luciferase;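 active = mean replicate inhibition score of at least 50 and every replicate individually at or above 50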;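 also: 0% = plate neutral controls and 100% = maraviroc near 300 nM; one replicate is shown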
MT1-MMP act inh RFP: further read-out of MT1-MMP act inh, marked with its call; RFP signal change, %; measured here: RFP expression control read;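 0 = vehicle wells; hits needed this value within 50% of zero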
The depositor's hits bear a star; i = inactive; . = no result given.

SMILES	Rce1 inh	CSC inhib	Yeast UUG start	MT1-MMP act inh	MT1-MMP act inh RFP	PABP FP inh	eIF4H inh	HIV Env fusion
COc1ccc(-n2nc(C(=O)N3CCC(C#N)CC3)c3c4ccccc4n(C)c3c2=O)cc1	i	-6	1	1	2	.	.	-8
Nc1nnc(CC(=O)N/N=C/c2ccc(-c3ccccc3Cl)o2)s1	i	-8	.	-3	0	6	24	-14
CCOC(=O)Cn1nnnc1C(CC)N(Cc1ccccc1)Cc1cc2cc(C)ccc2[nH]c1=O (centres undefined)	i	-1	3	-9	-10	-8	-14	39
O=C(NCc1ccccc1)C1CCCN(c2cnccn2)C1 (centres undefined)	i	6	9	-2	1	-7	-7	5
O=C(c1ccccc1Sc1ccc([N+](=O)[O-])cc1Cl)N1CCOCC1	i	-9	.	1	6	-7	3	0
Cc1cc2ncn(C(=O)c3c(-c4ccccc4)noc3C)c2cc1C	i	-16	-22	-5	-2	-13	4	.
CC(=O)NCCNC(=O)c1oc2ccccc2c1CSc1ncn[nH]1	i	-7	-19	-1	0	-5	-4	-10
CCOC(=O)N1CCN(C(=O)CN2C(=O)CC(C)(C)S(=O)(=O)c3ccccc32)CC1	i	-3	0	0	1	-5	6	.
COc1ccc2occ(C(=O)c3ccccc3)c2c1	i	-2	.	-3	-3	-7	0	-33
COCCn1nnnc1C(c1ccccc1OC)N1CCN(C(=O)c2ccco2)CC1 (centres undefined)	i	5	-2	-5	1	5	-11	-4
O=C(COC(=O)c1ccc([N+](=O)[O-])s1)Nc1ccccc1	i	-9	-4	0	4	-3	-2	.
Cc1ccc(C)c(NS(=O)(=O)c2cc(C(=O)N3CCCC3)ccc2Cl)c1	i	-8	.	0	-5	-10	-2	-5
CCN(CC)CCNC(=O)c1ccc(NC(=O)c2ccc(F)cc2F)cc1	i	1	.	-1	1	-4	9	6
COc1cccc(-c2nc3n(n2)C(c2cccs2)C(C(=O)Nc2cccnc2)=C(C)N3)c1 (centres undefined)	i	-21	-5	-3	1	2	4	-16
CCOC(=O)c1nc(NCc2ccccc2)sc1C	i	-18	-5	-2	-3	8	-5	3
O=S(=O)(O)Sc1ccccc1	.	.	-9	-3	-1	.	.	-5
COCCNc1nc(SC)nc2sc3c(c12)CCN(C)C3	i	1	1	1	1	-7	3	1
O=C1[C@H]2[C@@H](c3ccc(Cl)cc3)N3C(=O)N(c4cccc(Br)c4)C(=O)[C@@]3(Cc3ccc(Cl)cc3)[C@H]2C(=O)N1C1CCCCC1	i	4	-10	-5	-9	-1	-10	82*
O=C(O)c1ccccc1SCC(=O)N1CCc2ccccc21	i	-5	-20	.	.	-5	6	-6
COc1ccccc1-c1nnc(NC(=O)c2ccc(S(=O)(=O)N(C)C)cc2)o1	i	13	-9	7	2	9	8	.
O=C(NC1CCN(Cc2ccccc2)C1)c1cc(S(=O)(=O)N2CCOCC2)ccc1Cl (centres undefined)	.	9	-15	0	6	.	.	1
CCCCN1C[C@H](C)[C@@H](CC(=O)Nc2ccc(OC)cc2)C1=O	.	.	-27	1	-1	.	.	5
COc1ccc(NC(=O)c2cc(C3CCCCN3C(=O)OCc3ccccc3)on2)c(C)c1 (centres undefined)	.	.	-3	-6	-4	.	.	6
COc1ccc(CNS(=O)(=O)c2ccc3c(c2)CCN3C(=O)C2CC2)cc1	i	.	-7	8	-5	4	10	21
CC(C)Cn1c(N)c(C(=O)CSc2nc3ccccc3c(=O)n2CCCN2CCOCC2)c(=O)n(C)c1=O	i	-7	.	.	.	30	7	.

(next part)
SMILES	Rce1 inh	CSC inhib	Yeast UUG start	MT1-MMP act inh	MT1-MMP act inh RFP	PABP FP inh	eIF4H inh	HIV Env fusion
Cc1ccc(-c2nnc(N3CCN(C(=O)CN4C(=O)c5ccccc5C4=O)CC3)c3ccccc23)cc1	i	5	-21	3	-3	.	.	-2
O=C(O)C1CCN(c2nc(-c3ccccc3)c3cc(Br)ccc3n2)CC1	i	3	-16	-13	-5	4	10	2
Cc1c(NC(=O)CSC2=C(C#N)C(c3ccccc3F)CC(=O)N2)c(=O)n(-c2ccccc2)n1C (centres undefined)	i	-7	5	-9	-1	-9	-12	.
COC(=O)C1=CN(c2ccc(F)cc2)C=C(C(=O)OC)C1c1cccc([N+](=O)[O-])c1	i	30	-10	-1	-4	-7	2	-6
CCCC(=O)Nc1cccc(C(=O)Nc2ccccc2OCC)c1	i	1	.	.	.	-9	2	10
Cc1nc2sc(C(=O)O)c(N)c2c2c1COC(C)(C)C2	i	7	-2	7	8	23	3	-65
CC(C)Cn1c(=O)c2ccccc2n2c(CCC(=O)NCC3CCCO3)nnc12 (centres undefined)	i	-3	6	2	2	-1	7	-4
Cc1nnc(SCCC(C)C)[nH]c1=O	i	-4	-50	3	2	-7	-8	-176
Cc1ccccc1CN(C)C(=O)COC(=O)CSc1ccc([N+](=O)[O-])cc1	i	1	5	2	-2	.	.	12
Cc1cc(NC(=O)CN2CCC(n3nnc4cc(C(F)(F)F)ccc43)CC2)no1	i	0	-5	10	-2	-4	1	.
O=C(COC(=O)[C@H](Cc1ccccc1)NC(=O)c1ccco1)NCc1ccccc1	i	-3	1	3	-1	6	-2	-27
CC[C@@H](C)C(NC(=O)OC(C)(C)C)c1cn([C@@H](Cc2cc3ccccc3[nH]2)C(=O)N2CCN(C(=O)OC(C)(C)C)CC2)nn1 (some centres undefined)	i	-15	-2	-7	-13	8	4	19
COc1ccc(OC)c(-c2csc(NC(=O)Cc3ccccc3F)n2)c1	i	61	-6	-6	-6	6	3	-4
COCCCNC(=S)N1CCN(S(=O)(=O)c2ccc(OC)cc2)CC1	i	-4	.	-1	-2	-14	-10	-9
CC1=CC(=O)Nc2ncccc2O1	.	.	-4	-4	7	.	.	6
O=C(c1ccc2snnc2c1)N1CCSCC1	i	-1	-15	-1	2	9	-2	.
CCCCOC(=O)c1sc2nc(N3CCOCC3)c3c(c2c1N)CC(C)(C)OC3	i	-9	.	0	3	-2	-4	14
CC(CCc1ccco1)NC(=O)CCc1nnc2ccc(NCc3ccccc3)nn12 (centres undefined)	i	-17	-16	-7	-2	0	-2	6
CCC(C)[C@H](NC(=O)N1CCN(C)CC1)C(=O)OC (some centres undefined)	.	-16	-4	-2	-1	10	2	11
COC(=O)C1(S(=O)(=O)C2(C(=O)OC)CCCC2)CCCC1	i	3	.	4	3	3	-4	-13
Cc1cc(NC(=O)CSc2nc3ccccc3n2CC(C)C)no1	i	-5	.	-2	-2	-7	1	17
CCOc1ccc(-n2c(N)c(C(=O)NCC3CCCO3)sc2=S)cc1 (centres undefined)	i	0	-14	0	3	8	-12	11
Cc1ccccc1C(=O)Nc1ccc(S(=O)(=O)N2CCOCC2)cc1	i	2	1	1	-1	0	6	.
COC(=O)C1CN(S(=O)(=O)c2ccc(C)cc2)CCN1S(=O)(=O)c1ccc(C)cc1 (centres undefined)	i	-14	-6	-2	-2	-3	3	.
CC1(C(=O)NCc2ccc(Cl)cc2)CCN1C(=O)Cc1cccs1 (centres undefined)	.	.	-4	4	-1	.	.	18

Part of the list above in a different format.
> CC1(C(=O)NCc2ccc(Cl)cc2)CCN1C(=O)Cc1cccs1 (centres undefined)
  Rce1 inh: .; CSC inhib: .; Yeast UUG start: -4; MT1-MMP act inh: 4; MT1-MMP act inh RFP: -1; PABP FP inh: .; eIF4H inh: .; HIV Env fusion: 18

> Cc1ccccc1CN(C)C(=O)COC(=O)CSc1ccc([N+](=O)[O-])cc1
  Rce1 inh: i; CSC inhib: 1; Yeast UUG start: 5; MT1-MMP act inh: 2; MT1-MMP act inh RFP: -2; PABP FP inh: .; eIF4H inh: .; HIV Env fusion: 12

> CC1=CC(=O)Nc2ncccc2O1
  Rce1 inh: .; CSC inhib: .; Yeast UUG start: -4; MT1-MMP act inh: -4; MT1-MMP act inh RFP: 7; PABP FP inh: .; eIF4H inh: .; HIV Env fusion: 6

> COC(=O)C1=CN(c2ccc(F)cc2)C=C(C(=O)OC)C1c1cccc([N+](=O)[O-])c1
  Rce1 inh: i; CSC inhib: 30; Yeast UUG start: -10; MT1-MMP act inh: -1; MT1-MMP act inh RFP: -4; PABP FP inh: -7; eIF4H inh: 2; HIV Env fusion: -6

Further compounds.
SMILES	Rce1 inh	CSC inhib	Yeast UUG start	MT1-MMP act inh	MT1-MMP act inh RFP	PABP FP inh	eIF4H inh	HIV Env fusion
CC(C)(CNc1ccc([N+](=O)[O-])cc1Cl)N1CCOCC1	i	10	-6	2	-3	18	-1	6
O=C(c1cnn(C(=O)c2cccc(S(=O)(=O)N3CCOCC3)c2)c1)c1ccccc1O	i	-8	.	-3	1	-4	-2	-23
CCCCn1c(CN2CCN(C(=O)OCC)CC2)nc2c1c(=O)[nH]c(=O)n2C	i	-9	.	-2	-2	-4	-15	.
COc1ccc(-c2ccc3c(c2)C2CC3CCN2)cc1 (centres undefined)	.	.	-13	0	-1	.	.	9
Cc1cc(C)c(S(=O)(=O)N2CCN(c3ccccn3)CC2)c(C)c1	.	.	5	3	1	.	.	0
Cc1ccc2c(c1)C(c1ccccc1)N(C(=O)c1ccc(Br)cc1)CC(=O)N2 (centres undefined)	i	0	1	-10	-4	-5	-6	35
Cc1c(C(=O)NCC2CCCO2)cccc1[N+](=O)[O-] (centres undefined)	i	-8	.	-1	0	4	-4	6
CC(=O)c1c(OCC(=O)N(C)C2CCCCC2)ccc2c(C)cc(=O)oc12	.	-10	-5	4	1	.	.	5
CCN1CCN(CCC2Oc3cc([N+](=O)[O-])ccc3NC2=O)CC1 (centres undefined)	i	-4	-21	-1	1	-2	-3	3
COC1CCCCC1NS(=O)(=O)c1ccccc1 (centres undefined)	.	4	-5	0	4	-4	-4	.
CC(NC(=O)Cc1ccccc1)C(=O)O (centres undefined)	.	-22	-25	3	5	.	.	-1
c1ccc(Cc2nnc3sc(-c4ccc5c(c4)OCCO5)nn23)cc1	i	3	-44	-3	0	8	-7	-6
CCOC(=O)c1sc(=NC(=O)/C=C/c2ccccc2)n(C)c1C	i	-14	-1	-4	0	8	-7	-9
Cn1c(=O)oc2cc(S(=O)(=O)NC3CCCCCCC3)ccc21	i	8	-9	1	-3	-7	-13	-49
Cc1cccc(NC(=O)C23CCC(C)(/C(=N/O)C2)C3(C)C)c1 (centres undefined)	i	-2	-3	4	0	1	-4	-11
COc1cc(NC(=O)c2ccc(N3CCCC3=O)cc2)cc(OC)c1	.	6	-4	.	.	.	.	-17
CCOC(=O)C(NC(=O)NCc1cccc(C(F)(F)F)c1)(OCC)C(F)(F)F (centres undefined)	i	1	.	0	1	1	-4	4
O=C(NCC(=O)N(CC1CCCO1)C1(C(=O)NC2CCCCC2)CCCCC1)c1ccccc1 (centres undefined)	i	-2	-5	0	4	0	6	-287
O=S(=O)(c1ccc(Br)cc1)N1CCN=C1SCc1cccnc1	i	-16	.	-1	-4	-1	2	-4
COc1ccccc1C(N)=S	i	-4	-15	4	6	9	0	.
Cc1cccc(C)c1N(CC(=O)NCc1ccc(F)cc1)C(=O)c1csnn1	i	-16	.	3	8	-6	2	-8
O=C(NCc1cccnc1)C1CCCCN1S(=O)(=O)c1ccc(F)cc1 (centres undefined)	i	-7	-28	-1	4	3	1	-8
CCN(CC)C(=O)C1=C(C)Nc2nnnn2C1c1cccnc1 (centres undefined)	i	3	-4	3	5	-2	-4	.
COc1ccc(N2CCN(C(c3ccc4ncccc4c3)c3nnnn3C(C)C)CC2)cc1 (centres undefined)	i	-3	-7	-1	-2	5	-7	3
O=C(NCCC1=CCCCC1)c1ccc(=O)oc1	i	-4	-4	-11	-9	-1	4	-64
Cc1ccc(C(=O)Nc2c(C)n(C)n(-c3ccccc3)c2=O)cc1	i	-3	.	-1	5	-1	5	-2
N#Cc1ccc(OCC(=O)OCC(=O)N2CCc3ccccc32)cc1	.	.	0	0	6	.	.	-2
O=C(NC1CC2CCCC(C1)N2Cc1ccccc1)c1cccc(Cl)c1 (centres undefined)	i	15	-7	2	2	-11	5	-9
COc1ccc(NC(=O)CSCC(=O)Nc2ccccc2N2CCCCC2)cc1	i	-4	-3	.	.	.	.	41
